Compound activity deposited in PubChem BioAssay by National Center for Advancing Translational Sciences (NCATS).
2A StopGo = High Throughput Screening for Foot and Mouth Disease Virus Antivirals | human cells with a luciferase reporter of 2A StopGo recoding; control for the full effect not named in the record | Potency, µM (series often up to 57.9 µM), without a hit: at the highest dose signal change, negative = less light | actives 1.2% (n = 410,000) | AID 1159524, 2015; active = well fitted falling curve with a large enough effect; inconclusive = small, poorly fitted or top-dose-only effect; inactive = no such curve, though single readings can be large or run the other way; tested in HEK293T cells; also: % is scaled to controls: 0 for no effect and ±100 for the full control effect; nearly all actives have a fitted effect of over 45% in size; luciferase light after 4 h
NS1 inh = qHTS Assay for Inhibitors of Influenza NS1 Protein Function | S. cerevisiae slowed by influenza A NS1, growth recovery by OD600 | Potency, µM (series often up to 46.1 µM), without a hit: at the top dose activity, positive = more growth | actives 0.4% (n = 270,000); also: actives are rising curves; nearly all actives have a fitted effect of over 50% in size
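Compounds were scored for reversing the slow growth caused by influenza A NS1 in S. cerevisiae, measured by optical density at 600 nm. Assay medium contained 2% galactose at pH 6.0; NS1-free yeast of the same strain were the positive control.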
SARS PLP yeast = qHTS of Yeast-based Assay for SARS-CoV PLP. S. cerevisiae expressing SARS-CoV PLpro, growth rescue; control for the full effect not named in the record. Potency, µM (titrated, usually from 32.9 µM), inactives show top-dose activity, positive = growth rescue. actives 0.19% (n = 330,000); also: 0% is about no effect; nearly all actives have a fitted effect of over 55% in size; growth read by luminescence after 48 h
RE007 growth inh = qHTS Assay for Inhibitors of the HIV-1 protein Vpr; S. pombe RE007 Vpr strain, BacTiter-Glo ATP luminescence, 24 h; control for the full effect not named in the record; Potency, µM (highest dose often 92.2 µM), inactives show at the highest dose activity change, negative = less growth; actives 0.21% (n = 360,000); active = well fitted falling curve with a large enough effect; inconclusive = small, poorly fitted or top-dose-only effect; inactive = no such curve, though single readings can be large or run the other way;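 also: % is scaled to controls: 0 for no effect and ±100 for the full control effect; nearly all actives have a fitted effect of over 50% in size; the assay follows cell death caused by Vpr and the record does not say whether a fall means rescue or toxicity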
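Fission yeast strain RE007, carrying one chromosomally integrated HIV-1 vpr copy, was seeded at OD 0.01 in PMG+AL medium with 23 nL pinned compound. After 24 h at 30 °C and 99% humidity, viability was read by BacTiter-Glo luminescence.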
LASV entry inh = qHTS for Inhibitors of binding or entry into cells for Lassa Virus. Potency, µM (titrated, usually from 37.9 µM), for the others: at the highest dose activity change, negative = inhibition, hits mostly inhibitors. actives 1.2% (n = 300,000). Lassa virus pseudotype entry inhibition, cell reporter; control for the full effect not named in the record; active means well fitted inhibition curve with a large enough effect; inconclusive means small, poorly fitted or top-dose-only effect, or effect the other way; inactive means flat fitted curve, though single readings scatter; tested in HEK293 cells; also: % is scaled to controls: 0 for no effect and ±100 for the full control effect; nearly all actives have a fitted effect of over 50% in size; luciferase read-out
Cruzain inh Det = qHTS Assay for Promiscuous and Specific Inhibitors of Cruzain (with detergent); actives 0.43% (n = 200,000); AID 1478, 2009; Cruzipain (Trypanosoma cruzi), P25779; purified cruzain, Z-FR-AMC fluorescence, 0.01% Triton; Potency, µM, inactives show max response, negative = inhibition, most hits filed as inhibitors; active = well fitted curve in the direction sought with a large enough effect; inconclusive = small, poorly fitted or top-dose-only effect, or another doubt; inactive = no such curve, though single readings can be large; an effect the other way counts as inactive or inconclusive;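 also: plate controls were neutral wells for no effect and buffer without enzyme for full effect; nearly all actives have a fitted effect of over 40% in size; top concentration of the series not given in the record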
Target sequence (P25779 123-467 limits assumed): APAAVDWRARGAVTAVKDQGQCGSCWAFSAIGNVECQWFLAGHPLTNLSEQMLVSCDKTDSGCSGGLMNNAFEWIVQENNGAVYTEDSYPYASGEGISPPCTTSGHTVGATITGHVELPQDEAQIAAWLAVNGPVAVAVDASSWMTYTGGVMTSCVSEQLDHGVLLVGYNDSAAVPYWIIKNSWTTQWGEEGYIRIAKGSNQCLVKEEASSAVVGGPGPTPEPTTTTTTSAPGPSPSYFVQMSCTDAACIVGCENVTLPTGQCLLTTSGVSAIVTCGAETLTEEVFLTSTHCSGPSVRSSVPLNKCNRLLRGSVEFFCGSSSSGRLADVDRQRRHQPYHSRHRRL
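In this qHTS format, compounds are incubated with 1.5 nM cruzain for 15 min at room temperature before 2 uM Z-FR-AMC is added. Release of AMC is followed at 360/450 nm, and progress is taken as the 60 s fluorescence difference.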
MARV entry inh = qHTS for inhibitors of binding or entry into cells for Marburg Virus; Marburg virus pseudotyped entry inhibition, cell reporter; control for the full effect not named in the record; about a third of the inactives were read at about 46 µM; AID 540276, 2011; Potency, µM (titrated, usually from 37.8 µM), for the others: top-dose activity change, negative = inhibition, usual class: inhibitors; actives 1.8% (n = 300,000); active = well fitted inhibition curve with a large enough effect; inconclusive = small, poorly fitted or top-dose-only effect, or effect the other way; inactive = flat fitted curve, though single readings scatter; tested in HEK293 cells; about a fifth of its hits are not listed in these tables; also: % is scaled to controls: 0 for no effect and ±100 for the full control effect; luciferase read-out
Cruzain noTriton = qHTS Assay for Promiscuous and Specific Inhibitors of Cruzain (without detergent); Cruzipain (Trypanosoma cruzi), P25779; purified cruzain, Z-FR-AMC fluorescence, no detergent; Potency, µM, without a hit: max response, negative = inhibition, most hits filed as inhibitors; actives 2.3% (n = 200,000); active = well fitted curve in the direction sought with a large enough effect; inconclusive = small, poorly fitted or top-dose-only effect, or another doubt; inactive = no such curve, though single readings can be large; an effect the other way counts as inactive or inconclusive;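 also: plate controls were enzyme without inhibitor for no effect and buffer without enzyme for full effect; nearly all actives have a fitted effect of over 40% in size; top concentration of the series not given in the record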
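Purified cruzain at 1.5 nM, pre-incubated 15 min with compound at room temperature in 100 mM sodium acetate pH 5.5, 5 mM DTT, 0.00005% Triton X-100. Reaction started with 2 uM Z-FR-AMC; AMC fluorescence increase over 60 s gives rate.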
* hit, by the source's call; ? = inconclusive; . = no result given; [ ] = dose if it differs, or a comment. Unless noted, calls follow the shape of the dose curve; as a rule, active means well fitted rising curve with a large enough effect; inconclusive means small, poorly fitted or top-dose-only effect; inactive means no such curve, though single readings can be large or run the other way. Potency is read from the fitted curve at half-maximal effect.

SMILES	2A StopGo	NS1 inh	SARS PLP yeast	RE007 growth inh	LASV entry inh	Cruzain inh Det	MARV entry inh	Cruzain noTriton
CCn1c(C)nnc1SCC(=O)Nc1ccc(Cl)cc1	13%	19%	1%	-8%	.	.	.	.
Cc1ccc2cc(C#N)c(NCc3ccco3)nc2c1	-16%	4%	10%	-5%	-1%	-1.9%	?	-13%
CCCCCC1CC(=O)NC1(C(=O)OCC)C(=O)OCC (stereo not drawn)	-9%	.	.	13%	?	.	0%	.
CC(C)N(CCCNC(=O)C1CCC(CNS(=O)(=O)c2ccccc2)CC1)Cc1ccccc1 (stereo not drawn)	-23%	4%	-1%	-1%	.	.	.	.
CC(C)(C)NC(=O)NC(=O)COC(=O)CNC(=O)C1CCCCC1	-6%	-3%	1%	-8%	1%	.	-14%[14.2 µM]	.
COc1ccc(-c2nn(CCC#N)cc2C(=O)Nc2ccccc2Br)cc1[N+](=O)[O-]	-6%	4%	-3%	1%	-21%	.	2%[46.1 µM]	.
CC(=O)NC1CSCC1OC(C)=O (stereo not drawn)	-2%	-1%	3%	2%	7%	3.0%	5%	-7%
COc1ccc(S(=O)(=O)Nc2cc(-c3cn4ccc(C)cc4n3)ccc2C)cc1OC	25%	.	.	.	-18%[46.1 µM]	-6.3%	9%[46.1 µM]	5%
Cc1nc(S(=O)(=O)Cc2ccccc2Cl)nc2c1CCC2	14%	0%	0%	18%	2%	.	8%[46.1 µM]	.
COc1ccc(/C=C(\C#N)C(=O)OCC(=O)N(C)C2CCS(=O)(=O)C2)cc1 (stereo not drawn)	-1%	.	6%	1%	-6%	.	0%	.
COc1ccc(CNC(=O)CN(c2cc(C)cc(C)c2)S(=O)(=O)c2c(C)noc2C)cc1	-21%	-16%	3%	9%	.	-3.5%	.	-5%
O=S(=O)(NCc1cn2ccccc2n1)c1cccs1	49%[activator]	2%	-2%	-4%	.	.	.	.
O=C(Nc1cccc(F)c1)c1sc(Cl)nc1-c1ccccc1	-22%	1%	26%	-16%	-2%	-1.8%	6%	-13%
CC1(C)C2CC=C(CN3CCC(O)CC3)C1C2 (stereo not drawn)	-8%	-3%[9.22 µM]	-1%	-7%	-15%	5.8%	-3%	-8%
Cc1ccc(S(=O)(=O)N(C)c2ccc(N)cc2)cc1	9%	5%	-3%	13%[3.69 µM]	12%	4.8%	8%	-2%
CC(C)(C)c1ccc(Cn2nnc3c(=O)[nH]c(C4CCCN(C(=O)Cc5cccs5)C4)nc32)cc1 (stereo not drawn)	?	?	4%	11%	?	-8.7%	?	?
Cc1cccc(NC(=O)CSc2cc(C)c(C#N)c3nc4ccccc4n23)c1	-43%	-1%	-1%	-11%	.	.	.	.
Cc1ccc(SCCC(=O)NC2CC2)cc1	3%	-2%	0%	19%	19%	.	0%[46.1 µM]	.
CCOC(=O)c1sc2nc(C(C)C)c3c(c2c1N)CC(C)(C)OC3	-9%	3%	-2%	11%	1%	-15%	0%	-4%
C=CCOc1c(Br)cc(CNc2ccc3[nH]c(=O)[nH]c3c2)cc1OCC	-15%	6%	1%	-6%	-9%	.	?	.
CCCCN=CC1=C(O)C(C(=O)OC)C(C)(C)CC1=O (stereo not drawn)	-26%	-16%	-2%	-9%	-21%	2.5%	2%	5%
CC1=C(C(=O)Nc2ccc(F)cc2)C(c2cccc(C)c2)n2nc(CCCO)nc2N1 (stereo not drawn)	-22%	-4%	2%	-4%	.	0.6%	.	-18%
COc1cc(NC(=O)Cc2c(C(=O)O)c(C)cn2C)cc(OC)c1	3%	.	.	.	17%[46.1 µM]	-2.4%	.	-4%
CCOc1ccc(C(=O)c2cn(CC(=O)Nc3ccc(F)cc3)c3cc4c(cc3c2=O)OCCO4)cc1	-6%	.	.	.	-1%[46.1 µM]	-4.7%	-5%[46.1 µM]	?
O=S(=O)(Nc1ccc(S(=O)(=O)Nc2ccccc2)cc1)c1ccccc1	23%	9%	-2%	15%	0%	-8.6%	-4%	5%
Going on with the list.
SMILES	2A StopGo	NS1 inh	SARS PLP yeast	RE007 growth inh	LASV entry inh	Cruzain inh Det	MARV entry inh	Cruzain noTriton
O=C(COc1ccccc1Cl)N1CCc2ccccc2C1	40%[activator]	-28%	-2%	-5%	28%	.	15%	.
Cc1noc(C(=O)NCc2ccc(F)cc2)c1Cl	-8%	-11%	-8%	-1%	.	-0.4%	.	3%
Cc1ccc(-c2nnc(N3CCOCC3)c3ccccc23)cc1S(N)(=O)=O	58%[activator]	.	.	10%	10%[46.1 µM]	.	-5%[46.1 µM]	.
COc1cc2c(cc1OC)C(SC)=NC1(CCCC1)C2	?	-6%	-1%	8%	8%[46.1 µM]	.	?	.
Cc1cc(-c2nnc(CCC(=O)N(C)Cc3ccsc3)o2)no1	33%[activator]	4%	-1%	27%	.	.	.	.
COc1ccc(C(=O)c2nc3c(n2O)CCCC3)cc1OC	0%	-4%	3%	-8%	7%	-0.5%	?	-8%
N#CC1=C2Nc3ccccc3N2C(=O)NC1(c1ccccc1)C(F)(F)F (stereo not drawn)	29%	1%	-3%	24%	10%	4.0%	-30%[46.1 µM]	?
O=C(COC(=O)c1cc(S(=O)(=O)N2CCCCC2)ccc1N1CCOCC1)c1ccccc1	-6%	.	-2%	9%	-13%	.	?	.
O=C(Nc1ccccc1C(=O)O)c1cccc(S(=O)(=O)Nc2ccc(Br)cc2)c1	23%	17%	2%	13%	.	.	.	.
NC(=O)c1ccc[n+](CCC[n+]2cccc(C(N)=O)c2)c1	-5%	.	0%	2%	4%	.	0%	.
CCN(CC)CCOC(c1ccccc1)c1ccc(C)cc1 (stereo not drawn)	-24%	6%	7%	0%	?	4.5%	8.9µM*	11%
CC(C(=O)NC1CCCC1)N(Cc1ccco1)C(=O)c1snc(C(=O)NC2CCCC2)c1N (stereo not drawn)	.	-33%	3%	-6%	-5%	-4.0%	?	7%
Cc1nc(SCC(=O)N2CC(=O)Nc3ccccc32)c2c(C)c(C)sc2n1	.	3%	10%	-5%	?	-6.1%	?	?
COC(=O)c1ccc(C2C(Oc3ccc(OC)cc3)C(=O)N2CCc2ccc(OC)c(OC)c2)cc1 (stereo not drawn)	7%	5%	22%	9%	?	-3.1%	-5%	?
CCOc1cc(N2CCOCC2)c(OCC)cc1NC(=O)Cc1ccc(OC)c(OC)c1	?	2%	0%	-24%	-4%	-3.7%	?	?
CC1CCN(S(=O)(=O)c2ccc3c(c2)CCN3)CC1	38%[activator]	.	.	.	9%[46.1 µM]	6.8%	.	3%
O=C(Nc1nnc(-c2ccccc2)o1)Nc1ccccc1Cl	1%	-34%	2%	-12%	.	4.5%	.	2%
CCOCCCNC(=O)c1c(NC(=O)Cc2coc3c(C)c(C)ccc23)sc2c1CCC2	11%	.	.	.	2%[46.1 µM]	-1.9%	-12%[46.1 µM]	-16%
O=C(NNc1nc(-c2ccccc2)cs1)c1ccccc1	24%	22%	-1%	25%	?	-0.9%	?	?
Cc1ccc(C2C(N)C(=O)N2c2ccc(C)cc2)cc1 (stereo not drawn)	3%	-1%	-1%	6%	.	.	.	.
CC(=O)Nc1ccc(NC(=O)c2ccccc2N(Cc2ccccc2)S(C)(=O)=O)cc1	-4%	1%	7%	1%	-8%	.	-20%	.
CSc1ccc(S(=O)(=O)NCC(=O)OCC(=O)N(C)C2CCCCC2)cc1[N+](=O)[O-]	-16%	.	-6%	13%	0%	.	?	.
COc1ccc(C(=O)NC(Nc2ccccc2)C(Cl)(Cl)Cl)cc1 (stereo not drawn)	-24%	-7%	-8%	-10%	-27%	-0.7%	-17%	8%
Cc1ccc(NC(=O)C2(c3cccs3)CCOCC2)cc1Cl	-24%	.	.	.	-15%[46.1 µM]	-7.5%	.	0%
CC(=O)c1sc(NC(=O)CS(=O)(=O)c2ccccc2)nc1C	45%[activator]	.	4%	16%	8%	.	?	.
Further records.
SMILES	2A StopGo	NS1 inh	SARS PLP yeast	RE007 growth inh	LASV entry inh	Cruzain inh Det	MARV entry inh	Cruzain noTriton
CCOC(=O)N1CCN(C(=O)CCc2c(C)nc3c(c(C)nn3-c3ccc(C)c(C)c3)c2C)CC1	7%	-42%	3%	-6%	?	-9.9%	?	?
COc1ccc(Cl)cc1N(CC(=O)NC1CC1)S(=O)(=O)c1ccc(C)c([N+](=O)[O-])c1	-8%	1%	1%	-10%	7%[46.1 µM]	.	?	.
CC(SCc1cc(=O)n2c([nH]c3ccccc32)c1C#N)C(=O)O (stereo not drawn)	5%	.	-5%	-1%	27%	.	?	.
COc1ccc(N2CCN(C(=O)c3cc4cc(Cl)ccc4[nH]3)CC2)cc1	23%	12%	0%	-1%	-27%[46.1 µM]	.	21%[46.1 µM]	.
O=C(NCCC(=O)N1CCC2(CC1)NCCc1[nH]cnc12)c1cccc(Br)c1	-5%	7%	1%	-24%	7%[46.1 µM]	.	4%[46.1 µM]	.
CC(=O)C1CCCN(C(=O)c2ccc3oc(CCc4ccccc4)nc3c2)C1 (stereo not drawn)	-1%	0%	-20%	-9%	.	.	.	.
COCCn1cnc2c1c(=O)n(CC(=O)OCC(=O)NCC(F)(F)F)c(=O)n2Cc1ccccc1	-13%	-6%	?	4%	-5%	1.4%	-9%	-1%
Nc1nc(N)nc(-c2ccc(Cl)cc2)n1	.	-3%	-1%	-1%	8%	0.5%	15%	4%
COC(=O)c1c(SCc2cccc3ccccc23)nc(=O)[nH]c1C	-20%	0%	-1%	-6%	-11%	.	-6%[46.1 µM]	.
CCOc1cc(N2CCOCC2)c(OCC)cc1NC(=O)c1cc(S(=O)(=O)N2CCOCC2)ccc1Cl	-22%	.	1%	2%	-26%	.	?	.
